Source: PubChem
Mtb growth – Mycobacterium tuberculosis H37Rv growth inhibition, cell based, confirmatory dose response (AID 1949) | inhibition, % at 10 µg/mL, or IC50 in µg/mL where a hit was titrated | actives 1.6% (n = 100,000) | most inactive calls were filed without a number and no value below 0 was filed;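 active means confirmed in a dose series; inconclusive means about 50% or more but not retested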;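 further: bacteria grown 7 days with compound before Alamar blue readout; 0% = untreated bacteria and 100% = reference antibiotic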
An asterisk follows results filed as active; i = inactive; ? = inconclusive. This is a subset (hit frequency here may not be typical).

SMILES	Mtb growth
O=C(CSc1ccc(Cl)cc1)Nc1ccccc1I	20.8%
CCOC(=O)c1c(NC(=O)c2cc3ccccc3oc2=O)sc2c1CCCC2	i
Cc1cc(C)n(-c2nc(N3CCC(C)CC3)nc(C)c2[N+](=O)[O-])n1	1.6%
COC(=O)C1=CN(Cc2ccccc2)C=C(C(=O)OC)C1c1cc(C)ccc1C	i
Cc1cc(C)c(NC(=O)COc2cc(C)ccc2C(C)C)c(C)c1	i
O=S(=O)(NN1CCOCC1)c1ccc(Cl)cc1	i
CCC1CCCCN1C(=O)C(C)Oc1ccccc1 (stereo not drawn)	i
Cc1c(Cl)cccc1NC(=O)CN(C)S(=O)(=O)c1ccc(Cl)cc1	i
Cc1nc(SCC(=O)Nc2ccc(Br)cc2)c(C#N)c(C)c1C	i
CCOc1ccc(S(=O)(=O)Nc2ccccc2C(=O)NN2CCN(C)CC2)cc1	i
CC(C)c1ccc(O)c(NC(=O)c2cccnc2)c1	i
Cc1ccc(-c2nc3ccccc3n3nnnc23)cc1	1.0%
O=C(Cn1c(=O)oc2ccccc21)Nc1ccc(Cl)c(Cl)c1	i
CCOc1ccccc1NC(=O)CN(c1ccccc1Br)S(C)(=O)=O	i
N/C(=N\OC(=O)CCC1CCCC1)c1ccccc1	i
Cc1ccc(C)c(OCC(=O)Nc2ccc(S(=O)(=O)N3CCCC3)cc2)c1	i
Cc1cccc(C)c1OCCCCN1CCNCC1	i
O=C(COc1ccc2c3c(c(=O)oc2c1)CCCC3)c1ccccc1	i
CCOc1ccc2ccccc2c1C(=O)NCc1cccs1	38.2%
Cc1ccc(N2CCN(S(=O)(=O)c3ccc(Br)cc3)CC2)c(C)c1	4.8%
CCc1c(C)sc(NC(=O)c2cc(OC)c(OC)c(OC)c2)c1C#N	i
CC(C)NS(=O)(=O)c1ccc(OCC(=O)Nc2cccc(F)c2)cc1	0.8%
O=C(N1CCOCC1)C1(c2ccc(Cl)cc2)CCCC1	i
COc1ccc(NC(=O)CSCC(=O)Nc2ccc(C(C)C)cc2)cc1Cl	7.3%
Cc1cc(Oc2ccccc2)nc(Oc2ccc(OCC(N)=O)nn2)n1	i
O=C(c1ccco1)N1CCN(S(=O)(=O)c2cccc(Cl)c2)CC1	i
N#Cc1c(NC(=O)c2cc(S(=O)(=O)N3CCCCC3)ccc2Cl)sc2c1CCCC2	i
COc1cccc2c(=O)c(CC=C(Cl)Cl)c(C)[nH]c12	22.3%
CN(C)C(=O)CSc1nc(SCC(=O)N(C)C)n(-c2ccccc2)n1	i
CCOC(=O)c1cnc(Cc2ccccc2)[nH]c1=O	i
CCOc1ccc(N2CC(C(=O)NCCC3=CCCCC3)CC2=O)cc1 (stereo not drawn)	3.5%
O=C1NC(=O)c2cc(S(=O)(=O)Nc3ccc(I)cc3)cc3cccc1c23	i
O=c1c2ccccc2nc(-c2ccc(Cl)cc2)n1CCCCOc1ccccc1F	8.8%
Cc1c(OC(=O)c2ccco2)ccc2c(-c3ccccc3)cc(=O)oc12	i
Cc1cc(Br)ccc1OCC(=O)N(C(C)C)C(C)C	i
Cc1ccc(-n2nnnc2SCc2ccccn2)cc1C	i
COc1ccc(S(=O)(=O)N2CCC(C(N)=O)CC2)c2ccccc12	i
Oc1ccccc1-c1n[nH]c(=S)n1Cc1ccccc1	i
Cc1cc2ncn(CC(=O)N(c3ccccc3)C(C)C)c2cc1C	i
O=S(=O)(Nc1ccc2c(c1)OCCO2)c1ccc2oc3ccccc3c2c1	i
NC(=O)CNC(=O)c1ccc(C#CC2(O)CCCCC2)cc1	i
CCc1ccc(C(=O)N2CCN(c3ccc(F)cc3)CC2)s1	i
Cc1ccccc1C1CC(=O)NC(SCCC(C)C)=C1C#N (stereo not drawn)	2.2%
Cc1ccc(Cl)cc1NC(=O)C1CC(=O)N(c2cccc(Cl)c2C)C1 (stereo not drawn)	i
O=C(Nc1ccc(I)cc1C(=O)NCCN1CCOCC1)c1ccc(Cl)cc1Cl	33.1%

Next part; it opens with the two that closed the last part.
SMILES	Mtb growth
Cc1ccc(Cl)cc1NC(=O)C1CC(=O)N(c2cccc(Cl)c2C)C1 (stereo not drawn)	i
O=C(Nc1ccc(I)cc1C(=O)NCCN1CCOCC1)c1ccc(Cl)cc1Cl	33.1%
C=CCn1c(-c2cccc(OCC)c2)n[nH]c1=S	2.4%
CCOC(=O)C1=CC2(SC=C(C(=O)OCC)S2)C2=C(S1)C(C)(C)Nc1ccc(C)cc12 (stereo not drawn)	i
CCOc1ccc(-n2c(-c3ccc(OC)c(OC)c3)n[nH]c2=S)cc1	i
CCc1nnc(N2CCN(c3ncnc4c3oc3ccccc34)CC2)s1	i
Cc1ccc(/C=C/C(=O)O)cc1S(=O)(=O)N1CCc2ccccc21	i
COc1ccc(-c2c(C)oc3cc(OCC(=O)c4ccccc4)ccc3c2=O)cc1	18.7%
O=C(O)c1ccc(NC(CC(=O)c2ccccc2)c2ccc(Br)cc2)cc1 (stereo not drawn)	7.58µg/mL*
CSc1cccc(NC(=O)c2ccc(CN3CCOCC3)cc2)c1	i
Cc1cccc(CN2C(=O)C(=O)c3ccccc32)c1	i
CCC(C)NC(=O)C(=O)Nc1ccc(C)cc1C (stereo not drawn)	i
COc1ccccc1NC(=O)C1CCN(C(=O)c2ccccc2C)CC1	i
Cc1ccc(Nc2nc(N)nc(CSCCO)n2)cc1	i
COc1ccc(C(=O)N(C)c2ccccc2C(=O)N2CCOCC2)cc1	i
CCn1c(C(CC(C)C)NC(=O)c2ccc(Cl)cc2)n[nH]c1=S (stereo not drawn)	2.1%
COc1ccc(NC(=O)CSC2=C(C#N)C(c3cccc(Br)c3)CC(=O)N2)cc1 (stereo not drawn)	i
O=C(Nc1nnc(-c2ccco2)s1)c1ccccc1I	i
O=C1CC(c2cc3c(cc2[N+](=O)[O-])OCO3)c2cc3c(cc2N1)CCC3 (stereo not drawn)	9.8%
CCC(Oc1ccccc1)C(=O)N1CCC(C(N)=O)CC1 (stereo not drawn)	2.7%
COc1ccc(CCNC(=O)CN(Cc2ccccc2F)S(=O)(=O)c2ccc(Cl)cc2)cc1	i
O=[N+]([O-])c1cccc(-c2noc(C3CCCCC3)n2)c1	i
COc1cc(-c2nnc(SCC(=O)c3ccc(-c4ccccc4)cc3)n2C)cc(OC)c1OC	0.1%
CC(C)(Oc1ccc(Cl)cc1)C(=O)Nc1nnc(Cc2ccc(Cl)cc2)s1	5.3%
COc1cccc(NC(=O)CCSc2cc(C)c3ccccc3n2)c1	3.3%
CC(C)c1ccccc1OCC(=O)NN1C(=O)c2ccccc2C1=O	i
Cc1ccc(S(=O)(=O)N(CC(=O)Nc2cccc([N+](=O)[O-])c2C)c2ccccc2Cl)cc1	1.0%
Cc1cccc(OCC(=O)NC(=S)Nc2ccc(N3CCOCC3)c(Cl)c2)c1C	i
O=C1CC(N2CCOCC2)C(=O)N1c1ccc(Br)cc1 (stereo not drawn)	i
COc1cccc(OCC(O)CN2CC(C)CC(C)C2)c1 (stereo not drawn)	1.4%
O=C(CSc1ccc(F)cc1)NC12CC3CC(CC(C3)C1)C2	4.8%
CS(=O)(=O)N1CCC(C(=O)Nc2ccc(Cl)cc2)CC1	i

Part of the list above, as comma-separated lines.
SMILES,Mtb growth
O=C1CC(N2CCOCC2)C(=O)N1c1ccc(Br)cc1 (stereo not drawn),i
O=C1CC(c2cc3c(cc2[N+](=O)[O-])OCO3)c2cc3c(cc2N1)CCC3 (stereo not drawn),9.8%
O=C(Nc1nnc(-c2ccco2)s1)c1ccccc1I,i
COc1cccc(OCC(O)CN2CC(C)CC(C)C2)c1 (stereo not drawn),1.4%

(cont.)
SMILES	Mtb growth
Cc1cc(F)c(F)c(C(=O)n2nnc3ccccc32)c1Cl	i
Cc1cc(C)cc(OCC(=O)NCC2CCCO2)c1 (stereo not drawn)	i
CC(C)(C)NS(=O)(=O)c1cc(Cl)ccc1Cl	i
CCOc1ccc(-c2cc(=O)c3cc(O)ccc3o2)cc1	i
COc1ccc2nc(SCC(=O)Nc3nc4ccc([N+](=O)[O-])cc4s3)[nH]c2c1	i
O=C1c2ccccc2C(=O)N1CCc1nc2ccccc2c(=O)n1-c1cc(Cl)ccc1Cl	i
COC(=O)c1ccc(NC(=O)CN(C)S(=O)(=O)c2ccc(Cl)cc2)cc1	i
NC(=O)COc1ccc(S(=O)(=O)N2CCOCC2)cc1	i
COc1ccc(NC(=S)NCCN2CCOCC2)c(OC)c1	1.0%
O=C(/C=C/c1cccs1)NC1CCS(=O)(=O)C1 (stereo not drawn)	i
Cc1c(Cl)cccc1NC(=O)CSc1nccc(=O)[nH]1	i
CN(CCCOc1cccc2ccccc12)Cc1ccccc1	33.8%
CC(NC(=O)c1ccccc1NS(=O)(=O)c1ccc(Cl)cc1)c1ccccc1 (stereo not drawn)	i
COC(=O)c1cccc(NC(=O)c2ccc(Cl)c(Cl)c2)c1C	5.8%
COc1ccc(N(C(=O)c2ccc([N+](=O)[O-])cc2)S(=O)(=O)c2ccc(C)cc2)cc1	i
CC12CCC(C(=O)Nc3cc(Cl)ccc3Oc3ccccc3)(OC1=O)C2(C)C (stereo not drawn)	i
CN(C)c1ccc(C2CC(c3ccc(Br)cc3)=NN2S(C)(=O)=O)cc1 (stereo not drawn)	i
O=C(NCc1ccc2c(c1)OCO2)C(=O)Nc1cccc(Br)c1	i
Cc1cc([N+](=O)[O-])ccc1NC(=O)COc1ccccc1C(C)(C)C	i
CC(=O)c1ccccc1OC(=O)c1ccccc1Cl	i
C=CCn1c(COc2ccc(Br)cc2)nnc1SCC(N)=O	i
O=C1c2ccccc2C(O)(c2ccccc2)N1C1CC1 (stereo not drawn)	4.8%
COc1ccccc1NC(=O)c1c(C)c(-c2ccccc2)nc2ccccc12	i
CCOC(=O)c1c(NC(=O)C2CC2)sc2c1CCCCC2	0.1%
O=C(O)c1cc2nc3c(c(C(F)(F)F)n2n1)CCC3	i
Cc1ccc(S(=O)(=O)N2CCN(c3ccc([N+](=O)[O-])c(N4CCCCC4)c3)CC2)cc1	i
O=C(CCn1c(=O)oc2ccccc21)Nc1nc2c(s1)CCCC2	6.6%
CC(=O)N(C)c1ccc(NC(=S)NC(=O)c2cccc([N+](=O)[O-])c2)cc1	i
COc1ccccc1C(CC(=O)Nc1nccs1)c1ccc2c(c1)OCO2 (stereo not drawn)	i
Cc1cc(C)cc(NC(=O)c2ccccc2NS(C)(=O)=O)c1	i

Next section (four carried over from the part before).
SMILES	Mtb growth
O=C(CCn1c(=O)oc2ccccc21)Nc1nc2c(s1)CCCC2	6.6%
CC(=O)N(C)c1ccc(NC(=S)NC(=O)c2cccc([N+](=O)[O-])c2)cc1	i
COc1ccccc1C(CC(=O)Nc1nccs1)c1ccc2c(c1)OCO2 (stereo not drawn)	i
Cc1cc(C)cc(NC(=O)c2ccccc2NS(C)(=O)=O)c1	i
CCOC(=O)Cc1csc(NC(=O)c2cc3c(s2)CCCC3)n1	i
O=C(Nc1cccnc1)c1ccccc1N(Cc1ccccc1)S(=O)(=O)c1ccccc1	i
Cc1ccc(-c2nc3ccccc3s2)cc1NC(=O)c1ccc2c(c1)OCO2	i
Cc1ccc(-c2nc(N)n(S(C)(=O)=O)n2)cc1	i
Cc1ccc(C)c(NC(=O)Cn2c(SCc3ccccc3)nc3ccccc32)c1	i
Cc1ccc(C2C(C#N)=C(N)N(c3ccccc3C(F)(F)F)C3=C2C(=O)CCC3)c(C)c1 (stereo not drawn)	i
Cc1c(C(=O)Nc2ccccc2N2CCOCC2)cccc1[N+](=O)[O-]	i
Fc1c(F)c(N2CCOCC2)c(F)c(F)c1-c1ccccc1	i
C=CCOc1ccc(C2c3c(oc4ccccc4c3=O)C(=O)N2c2nnc(C(C)C)s2)cc1 (stereo not drawn)	i
Nc1nc(SCC(=O)NCCCN2CCOCC2)nc2sc3c(c12)CCC3	i
COc1ccc(-c2nnc(SCC(=O)Nc3ccc(Br)cc3C)o2)cc1	5.3%
Cc1csc(N2CCc3ccccc32)n1	23.6%
COc1ccc(C(=O)/C=C/Nc2ccc(C(C)=O)cc2)cc1OC	i
O=C(NC(=S)N1CCCc2ccccc21)c1cccs1	1.6%
CN(C)Cc1ccccc1C(O)c1ccccc1 (stereo not drawn)	i
O=C(Nc1ccc(I)cc1)c1nsc(Cl)c1Cl	i
O=C(Cc1ccccc1)N1CCC(C(=O)N2CCN(C(c3ccccc3)c3ccccc3)CC2)CC1	0.1%
Cc1oc2cc(OC(=O)CCNC(=O)OCc3ccccc3)ccc2c(=O)c1-c1ccc(F)cc1	i
O=C(Nc1nccs1)c1ccc(-c2ccc(Cl)cc2Cl)o1	?
COc1ccc(NC(=O)c2cc(C)cc(C)c2)cc1Cl	i
NC(=O)C1CCCN(c2ccc(C(F)(F)F)cc2[N+](=O)[O-])C1 (stereo not drawn)	2.5%
CCOc1cccc(N2C(=O)CC(N3CCC(c4nc5ccccc5s4)CC3)C2=O)c1 (stereo not drawn)	i
O=C(Nc1ccc(Oc2ccccc2)cc1)C1CCCC1	i
O=C(CSc1nc2sc3c(c2c(=O)[nH]1)CCCC3)N(c1ccccc1)c1ccccc1	12.2%
Cc1cccc(C(=O)NC(C)c2nnc(SCC(=O)Nc3ncc(C)s3)n2C)c1 (stereo not drawn)	i
COc1cccc(OC)c1OCCOc1ccc(Br)cc1	i
CCCNC(=O)c1ccccc1NC(=O)C1COc2ccccc2O1 (stereo not drawn)	i
C=C=CSc1nnc2n(C)c(=O)c3c(n12)-c1ccccc1CC31CCCCC1	i
CCOc1ccc(S(=O)(=O)N2CCc3ccccc3C2)c2ccccc12	i
COc1ccc(N(CC(=O)Nc2cccnc2)S(=O)(=O)c2ccc(F)cc2)cc1	i
Cc1cc(OCc2nc(-c3ccc(Cl)cc3)no2)cc(C)c1Br	10.1%

Laid out differently: 3 of the compounds above.
compound,Mtb growth
O=C(Nc1ccc(Oc2ccccc2)cc1)C1CCCC1,i
COc1ccc(N(CC(=O)Nc2cccnc2)S(=O)(=O)c2ccc(F)cc2)cc1,i
O=C(Nc1ccc(I)cc1)c1nsc(Cl)c1Cl,i
